NPYLR7 ag: activates Aedes aegypti NPYLR7 receptor. HEK293T NPYLR7/Galpha15, GCaMP6s calcium fluorescence. activation, % at 10 µM. 270,000 compounds, 0.15% hits; in the data active means activation above about 40%;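 further: 0% = vehicle and 100% = reference agonist at the receptor; some compounds past the cut are filed as inactive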
NPYLR7 ag max-min: second read-out of NPYLR7 ag, no call of its own (marks repeat the call); activation, %; measured here: Max-Min RFU normalised activation; some inactives read as strong as hits;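 span of the calcium signal over five minutes; 0% = vehicle and 100% = native peptide agonist; compound fluorescence can raise it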
Numbers without * were called inactive; & = joins results of further samples. The list is partial. The share of hits here may be higher or lower than overall.

SMILES	NPYLR7 ag	NPYLR7 ag max-min
COC1=CCC2=C(CCNC2Cc2ccc(O)cc2)C1 (stereo unspecified)	0	-3
O=C(Nc1cc(-c2ccccc2)nn1-c1ccccc1Cl)c1ccc(OC(F)(F)F)cc1	15	12
COc1cn(CC(=O)Nc2cccc(C)c2)c(CN2CCN(C(C)=O)CC2)cc1=O	-1	-2
Cc1sc(N/N=C\c2ccccc2[N+](=O)[O-])nc1-c1ccccc1	-2	-2
CCOC(=O)C1CCCN(C(=O)CC2(c3ccccc3)CC(=O)N(CCc3ccccn3)C2=O)C1 (stereo unspecified)	8	1
O=C(CSc1ccccn1)N1CCCC(Nc2ccccc2)C1 (stereo unspecified)	-2&3	-5&-1
Cc1c(NC(=O)Cc2csc(NC(=O)Nc3cccc(Cl)c3)n2)c(=O)n(-c2ccccc2)n1C	-2	-2
CN1CCC(Cc2noc(C[C@@H]3C[C@@H]4C=C[C@H]3C4)n2)CC1	0	-1
CCCCN(Cc1cccn1Cc1ccc(Br)cc1)C(=O)CN(CCCOCC)C(=O)c1cccc(Cl)c1	-8	0
COC(=O)Cn1c(=O)c2c(nc3n2CCCN3c2ccc(C)cc2C)n(C)c1=O	11	5
O=C(NCCN1CCOCC1)c1cccc(Nc2c(Oc3ccccc3)cnn(-c3ccccc3Cl)c2=O)c1	-6	10
Cc1cc(C)nc(-n2nc(C)cc2NS(=O)(=O)Cc2ccc(F)cc2)n1	5	8
C=CCn1c(SC2CCN(C3CC3)C2=O)nc2ccccc21 (stereo unspecified)	7	5
CCOC(=O)c1c(C)nc2sccn12	0	2
Cc1ccc(C)c(CC(=O)N2CCN(c3ncccn3)CC2)c1	-6	-8
O=C(C1CCCCC1)N(Cc1cccnc1)c1nc2c(F)cc(F)cc2s1	-13	-6
C=CCN(CC=C)Cc1c(C)[nH]c2c(C)cc(C)cc2c1=O	1	-2
Cc1ccn2cc(-c3ccc(C(C)(C)C)cc3)nc2c1	0	1
COc1ccc(OC)c(-n2c(C)cn3c4c(=O)n(C(C)C(C)=O)c(=O)n(C)c4nc23)c1 (stereo unspecified)	2	3
Cc1cc(-n2nc(C)cc2NS(=O)(=O)c2cccs2)nc(C)n1	-1	5

For reference, 15 of the compounds above:
SMILES	NPYLR7 ag	NPYLR7 ag max-min
CCOC(=O)C1CCCN(C(=O)CC2(c3ccccc3)CC(=O)N(CCc3ccccn3)C2=O)C1 (stereo unspecified)	8	1
O=C(CSc1ccccn1)N1CCCC(Nc2ccccc2)C1 (stereo unspecified)	-2&3	-5&-1
Cc1c(NC(=O)Cc2csc(NC(=O)Nc3cccc(Cl)c3)n2)c(=O)n(-c2ccccc2)n1C	-2	-2
CN1CCC(Cc2noc(C[C@@H]3C[C@@H]4C=C[C@H]3C4)n2)CC1	0	-1
CCCCN(Cc1cccn1Cc1ccc(Br)cc1)C(=O)CN(CCCOCC)C(=O)c1cccc(Cl)c1	-8	0
COC(=O)Cn1c(=O)c2c(nc3n2CCCN3c2ccc(C)cc2C)n(C)c1=O	11	5
O=C(NCCN1CCOCC1)c1cccc(Nc2c(Oc3ccccc3)cnn(-c3ccccc3Cl)c2=O)c1	-6	10
Cc1cc(C)nc(-n2nc(C)cc2NS(=O)(=O)Cc2ccc(F)cc2)n1	5	8
C=CCn1c(SC2CCN(C3CC3)C2=O)nc2ccccc21 (stereo unspecified)	7	5
CCOC(=O)c1c(C)nc2sccn12	0	2
Cc1ccc(C)c(CC(=O)N2CCN(c3ncccn3)CC2)c1	-6	-8
O=C(C1CCCCC1)N(Cc1cccnc1)c1nc2c(F)cc(F)cc2s1	-13	-6
C=CCN(CC=C)Cc1c(C)[nH]c2c(C)cc(C)cc2c1=O	1	-2
Cc1ccn2cc(-c3ccc(C(C)(C)C)cc3)nc2c1	0	1
COc1ccc(OC)c(-n2c(C)cn3c4c(=O)n(C(C)C(C)=O)c(=O)n(C)c4nc23)c1 (stereo unspecified)	2	3

Later entries.
SMILES	NPYLR7 ag	NPYLR7 ag max-min
O=C(c1cc(Br)c[nH]1)N1CCN(c2ccccc2)CC1	15	9
CC(=O)NCC(=O)N1CCC2(CC1)CCN(Cc1ccccc1)C2=O	2	28
CCOC(=O)c1cc(C(C)C)sc1NC(=O)COC	5	6
O=C(Sc1cccc2cccnc12)c1ccccc1Cl	-7	-11
OC1(c2ccc(OCc3ccccc3)cc2)CCOCC1	9	3
CCN1CC(CN(C)Cc2cnc(S(C)(=O)=O)n2CC(C)C)CC1=O (stereo unspecified)	7	3
O=C(c1cc(COc2cccc(F)c2)[nH]n1)N1CC(O)C1	2	-4
Cc1ccc(S(=O)(=O)c2ccc([N+](=O)[O-])o2)cc1	7	-1
COc1ccccc1NC(=O)c1cn(C)c2c(=O)n(-c3ccc(Cl)cc3)c(=O)[nH]c12	1	0
CC(C)CN(CC(=O)N1CCc2sccc2C1c1ccccc1)C(=O)N(C)C (stereo unspecified)	-10	-2
CC(=O)Nc1ccc(NC(=O)c2cc(C)cc(C)c2)cc1C	18	15
Cc1ccc(NC(=O)Cn2ccnc2-c2ccccn2)cc1	16	6
Cc1cccc(-n2nnnc2SCC(=O)N2CCc3ccccc32)c1	2	-2
Cc1cccc(-c2[nH]ncc2-c2ccc3ncccc3n2)n1	1	-6
C=CCN(Cc1ccc(C)s1)C(=O)c1cc(C)c(CC)n(C)c1=O	-5	-8
Cc1ccccc1C(=O)NC1CCN(c2ccccc2C(=O)N2CCCC2)CC1	-4	-1
CCOC(=O)Nc1ccc2c(CSCc3cccc(F)c3)cc(=O)oc2c1	4	2
O=C(NC(c1ccc2c(c1)OCO2)c1ccccn1)C1CCN(Cc2ccccc2)CC1 (stereo unspecified)	8	-3
COc1ccc(-c2cccc(-c3cccc(NC(=O)c4ccc(F)c(Cl)c4)c3)n2)cc1	8	3
Cc1cccc(-n2c(Cc3ccccc3)nnc2SCC(=O)NCc2ccccc2)c1	1	15
Cc1ccn2c(NC(C)(C)CC(C)(C)C)c(-c3cccc(F)c3)nc2c1	6	6
Cc1ccc(N2C(=O)CC(NCCc3c[nH]c4ccccc34)C2=O)cc1 (stereo unspecified)	-6	-11
CCCCc1ccc2c(c1)sc(=NC(=O)c1ccn(C)n1)n2CC(=O)OC	5	11
COc1ccc(-c2nc3ccc(Br)cn3c2NC2CCCCC2)cc1	11	10
CCc1nc(N(CCC(=O)Nc2cccc(C(F)(F)F)c2)CC(C)C)c2ccc(Cl)cc2n1	0	15
CC(C)NC(=O)[C@@H]1C[C@H](N)CN1C(=O)c1cccc2c3c([nH]c12)CCCC3	-1	-2
C=CCn1c(SCC(=O)NC2CCCCCCC2)nnc1C1CCCCC1	-1	-1
COc1cc(/C=C2/SC(=Nc3ccccc3)NC2=O)ccc1OCC#N	-9	-16
CCOC(=O)C1(CCCc2ccccc2)CCN(C(=O)Cc2nonc2C)CC1	15	7
COc1ccc(OC)c(NC(=O)c2cccnc2Nc2cccc(C)c2C)c1	-5	-9
COc1ccccc1/C=C/CN1CCNC(=O)C1CC(=O)NCc1ccc2c(c1)CCN2C (stereo unspecified)	2	-2
CCOc1cc2c(cc1NCc1nccn1CC)OC(C)C2 (stereo unspecified)	-5	-4
COc1cc(S(C)=O)ccc1-c1nc2ncccc2[nH]1 (stereo unspecified)	-7&-2	-11&-5
CS(=O)(=O)c1nc(-c2ccc(F)c(Cl)c2)c2c(N)n(-c3ccccc3Cl)nc2n1	14	7
Cc1ccnc(NC(=O)c2cccc(S(=O)(=O)N3CCCCCC3)c2)c1	1	0
CCc1nc2ccc(C(=O)NCCNC(C)=O)cn2c1N(CC)CCN(C)C	-4	-8
O=S(=O)(NCCc1nnc2ccc(SCc3ccc(Cl)cc3)nn12)c1ccccc1	4	-6
COc1cc(-c2nc(-c3c(F)cccc3F)no2)cc(OC)c1OC	-6	-16
COCCN(CC(=O)N1CCc2sccc2C1c1ccccc1C)S(=O)(=O)c1ccc(OC)cc1 (stereo unspecified)	2	-6
CCC(C)N(Cc1cc(Cl)ccc1OS(=O)(=O)c1ccc(NC(C)=O)cc1)C(=O)c1ccco1 (stereo unspecified)	4	7
COC(=O)c1cccc(OCC(O)Cn2cnc3cc(F)ccc3c2=O)c1 (stereo unspecified)	-1	-1
Cn1cc(C(=O)N(Cc2ccccc2)[C@@H]2CCCC[C@H]2O)ccc1=O	9	7
Cc1nc2n(n1)C(=O)C(C(c1ccc(Cl)cc1)N1CCC3(CC1)OCCO3)S2 (stereo unspecified)	2	0
COc1ccccc1-n1c(SCc2ccc(C(=O)NCc3ccncc3)cc2)nnc1-c1cccs1	3	4
Cc1cccc(C)c1Nc1c(C(C)c2ccccc2)nc2ccc(Br)cn12 (stereo unspecified)	12	12
CC(CNC(=O)c1ccc(OC2CCN(Cc3ccccn3)CC2)cc1)Oc1cccnc1 (stereo unspecified)	-1	-3
COc1cccc(C(CN2CCN(C(=O)Nc3cc(OC)ccc3OC)CC2)OCc2ccc(C)cc2)c1 (stereo unspecified)	12	7
CCCOc1ccc(/C=C/C(=O)Nc2nccs2)cc1OC	-6	-12
CCCCN1C(=O)c2ccccc2NC12CCN(S(=O)(=O)c1c(F)cccc1F)CC2	0	14
Cc1cccc(NS(=O)(=O)c2ccc(Cl)c(C(=O)Nc3ccccc3C)c2)c1	8	5
COCCCN1COc2ccc3c(=O)c(Oc4ccc(C(=O)OC)cc4)c(C)oc3c2C1	5	9
Cc1cc(OCC(O)CN2CCC(C)CC2)nnc1C (stereo unspecified)	4	2
COC(=O)CC(NC(=O)c1ccc(N2CCOCC2)nc1)c1ccccc1Cl (stereo unspecified)	1	0
COc1cc(COC2CCCN(S(=O)(=O)c3ccc(F)cc3)C2)cc(OC)c1 (stereo unspecified)	1	10
Cc1ccc2nc(-c3cc(N)ccc3Cl)oc2c1	0	-5
COc1ccc(NC(=O)c2ccc(CSc3nnc(-c4cccs4)n3-c3ccccc3OC)cc2)cc1	13	6
O=C1NC(c2cccc([N+](=O)[O-])c2)=CCN1c1ccccc1O	-1	-33
O=C(Nc1ccc(CC(=O)N2CCC(O)CC2)cc1)c1ccsc1	-10	-11
C=CCn1c(=O)c2c(nc3n2CCCN3c2ccc(Cl)cc2)n(C)c1=O	5	7
CCn1cc(C(=O)N2CCN(CCc3ccccc3)CC2)c2nn(-c3ccccc3)c(=O)c-2c1	-3	-8
(listing goes on)
SMILES	NPYLR7 ag	NPYLR7 ag max-min
O=S(=O)(NCCCN1CCN(c2ncccn2)CC1)c1ccc2c(c1)CCCC2	8	3
N#Cc1cc(NC(=O)c2ccc(Cl)cc2)c(=O)n2c1sc1ccccc12	15	4
CC(C)C(NC(=O)c1cccs1)C(=O)Nc1ccc2nccnc2c1 (stereo unspecified)	-1	-2
O=C(c1cccs1)N1CCN(c2cc(-n3ccnc3)ncn2)CC1	-14	-16
CCNC(=O)C1(C)CCCN1C(=O)c1ccccc1OC (stereo unspecified)	5	2
CCc1nc(COc2cc(OC)ccc2C(=O)OC)cs1	-2	-3
CN(C)C=Nc1ncnc2c1cnn2-c1ccccc1	2	1
CCNC(=O)COc1ccc(/C=C2/C(=O)Nc3ccc(Cl)cc32)cc1OCC	-1	-4
COc1ccc(NC(=O)C2CCN(C(=O)[C@H](Cc3ccccc3)NC(=O)Nc3ccc(Br)cc3Cl)CC2)cc1	6	4
COC(=O)c1sc(N2C(=O)C(=O)C(=C(O)c3ccc(OC)cc3)C2c2ccccc2OC)nc1C (stereo unspecified)	3	1
CCOC(=O)N1CCN(C(c2ccccc2F)C2Sc3nc(-c4ccco4)nn3C2=O)CC1 (stereo unspecified)	0	0
COCCn1c(CN2CCCCC2C)nc2c1c(=O)n(C)c(=O)n2C (stereo unspecified)	-6	-9
Cc1ccc(-n2nnc3c(=O)n(CC(N)=O)cnc32)cc1C	-5	-8
CC(=O)c1cccc(NCC(=O)Nc2ccc(Cl)cc2C(F)(F)F)c1	13	13
O=C(CCl)N1CCN(S(=O)(=O)c2ccc(F)c(Cl)c2)CC1	-2	-4
CC(NC(=O)COc1ccc2cc(Br)ccc2c1)c1ccc(F)cc1 (stereo unspecified)	1	-4
C=CCN(CC=C)c1cc(Cl)nc(SCc2ccc(C(=O)NC(c3ccccc3)c3ccccc3)cc2)n1	26	30
COc1cccc(C(=O)Nc2c3c(nn2-c2cccc(C)c2C)CS(=O)C3)c1 (stereo unspecified)	3	2
CC(C)C(=O)NCCNC(=O)c1cnc2ccccc2c1N1CCCC1	10	-16
CCC(C)N(Cc1ccc(OS(=O)(=O)c2ccc(OC)cc2)cc1)C(=O)Nc1ccccc1OC (stereo unspecified)	-5	-5
Cc1cccc2[nH]c(CN(C)C(=O)c3cn(CC4CCCNC4)nn3)nc12 (stereo unspecified)	2	3
CCN1CCC(C(=O)NC(c2ccc(Cl)cc2)c2ccccn2)CC1 (stereo unspecified)	8	7
COC(=O)[C@@H](NC(=O)C1CCCn2ccnc21)C(C)(C)C (stereo partly specified)	2	1
Cc1nn(CC(=O)N[C@@H]2C[C@H]3C(=O)N(C)CC(=O)N3C2)c(C)c1C	-3	-5
CC1CCN(c2ccc(NC(=O)COc3ccc(Cl)cc3)cc2C(=O)NCc2ccccc2)CC1	19	15
CCCCCCCC(=O)N1CCC[C@@H]1C(=O)NCCCNC(=O)c1ccc(OC)cc1	9	15
CCOC(=O)NC1(C(F)(F)F)NC(=O)N(C2CCCCC2)C1=O (stereo unspecified)	1	-1
COc1ccccc1-c1cc(C(=O)N2CCN(C(c3ccccc3)c3ccccc3)CC2)nc2cc(-c3ccccc3)nn12	18	31
CCc1ccc(CN(C)C(=O)Cn2nnnc2CN2CCC(C)CC2)nc1	5	2
Cc1sc(=O)n(CC(=O)NCCc2ccc(F)cc2)c1C	7	5
Cc1ccn(-c2ccc(Nc3ccc(NC(=O)c4ccc5c(c4)OCO5)cc3)nn2)n1	-4	-10
CCCCc1ccc(NC(=O)Cn2nc(C3CCCN(S(C)(=O)=O)C3)n(C)c2=O)cc1 (stereo unspecified)	-6	0
CCN(CC)C(=O)Nc1nnc(SCC(=O)NC2=NCCS2)s1	2	4
Cc1nn(C)c2ncc(NC(=O)C3CC=CCC3)cc12 (stereo unspecified)	5	13
O=C(NC1=N[C@@]23CO[C@H](c4ccccc4)C[C@@H]2CC(=O)[C@H]3S1)OCc1ccccc1	1	8

Assay outcomes: PubChem BioAssay, Fisher Drug Discovery Resource Center
